rRNA inh HTS = inhibitors of bacterial rRNA selective over humanized ribosomes; E. coli WT GFP vs humanized-ribosome RFP mutants, fluorescence, 24 h; active compounds read low; DMSO median 0, no signal -100; GFP signal change (wild-type ribosome), % (test concentration not listed); 350,000 compounds, 1.6% hits;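 active means significant combined selectivity score with lowered wild-type GFP, culture density cut under 30%, mutant RFP and density less affected; inactive means any of these conditions unmet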; further: one replicate is shown; some compounds called inactive have numbers as strong as hits
FGF22 binding = binders of recombinant human FGF22 by thermal shift. SYPRO orange fluorescence; percent of sucrose octasulfate shift, DMSO zero. 340,000 compounds, 1.5% hits. Q9HCT0. calls only at 9.99 µM. AID 651658;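 active means melting point raised past a set limit in the mean and every replicate; three in four hits are not shown here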
Target sequence (Q9HCT0 whole entry, looked up): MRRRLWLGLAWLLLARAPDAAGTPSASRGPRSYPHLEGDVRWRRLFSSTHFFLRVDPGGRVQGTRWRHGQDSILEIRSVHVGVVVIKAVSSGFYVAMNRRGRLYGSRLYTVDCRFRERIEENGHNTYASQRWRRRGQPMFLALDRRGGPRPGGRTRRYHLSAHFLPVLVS
rRNA inh HTS OD600 = recorded beside rRNA inh HTS, whose call it bears; OD600 change, %; measured here: OD600 growth;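 optical density of the mix in the first replicate; 0 = DMSO median and -100 = no signal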
rRNA inh HTS RFP = second read-out of rRNA inh HTS, no call of its own (marks repeat the call); RFP signal change, %; measured here: RFP humanized mutant strains;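 first replicate; 0 = DMSO median and -100 = no signal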
Numbers without * were called inactive; i = inactive. Some of the compounds tested, so the mix of outcomes need not match the whole.

SMILES	rRNA inh HTS	rRNA inh HTS OD600	rRNA inh HTS RFP	FGF22 binding
CCCNC(=O)N(C)C[C@@H]1Oc2cc(C#Cc3ccccn3)ccc2S(=O)(=O)N([C@@H](C)CO)C[C@@H]1C	-1	-7	1.1	i
C[C@@H]1CN([C@H](C)CO)C(=O)c2cc(NC(=O)CCC(F)(F)F)ccc2O[C@@H](C)CCCCO[C@@H]1CN(C)C(=O)NC1CCCCC1	-3	-8	-1.7	i
O=C(NCC[C@H]1CC[C@@H](NC(=O)C2CCCC2)[C@H](CO)O1)c1cc(Cl)cc(Cl)c1	-8	-11	6.9	i
C[C@H]1CN([C@@H](C)CO)C(=O)Cc2cc(NS(=O)(=O)c3cn(C)cn3)ccc2O[C@@H]1CN(C)Cc1ccc(Oc2ccccc2)cc1	4	-5	3.6	i
O=C(C[C@@H]1C[C@H]2c3cc(NC(=O)NC4CCCC4)ccc3O[C@H]2[C@@H](CO)O1)NCc1ccncc1	2	15	-4.8	i
C[C@@H]1CCCCO[C@H](CN(C)S(=O)(=O)c2ccc(Cl)cc2)[C@@H](C)CN([C@@H](C)CO)C(=O)c2cc(NC(=O)Nc3ccc4c(c3)OCO4)ccc2O1	5	13	-1.9	i
O=C(C[C@@H]1CC[C@H]2[C@@H](COC[C@H](O)CN2S(=O)(=O)c2ccc(F)cc2)O1)NCCN1CCCCC1	3	-5	1.0	i
O=C(O)C[C@H]1C[C@@H]2c3cc(NC(=O)Cc4ccncc4)ccc3O[C@@H]2[C@@H](CO)O1	6	12	0.8	i
C[C@H](CO)N1C[C@H](C)[C@H](CN(C)C(=O)NC2CCCCC2)OCCCC[C@H](C)Oc2ccc(NS(=O)(=O)c3cccs3)cc2C1=O	-2	-14	-0.9	i
COc1ccc(-c2ncn(CCc3ccccc3OC)c2C(C)C)cc1	-52	-79	-16	i
C[C@@H]1CN([C@@H](C)CO)C(=O)c2cc(NC(=O)Cc3ccccc3)ccc2O[C@@H]1CN(C)C(=O)Nc1ccc(F)cc1	4	-3	1.1	i
CO[C@@H]1CN(C)C(=O)c2cc(NC(=O)C3CCCCC3)ccc2OC[C@@H](C)N(C)C[C@H]1C	0	1	-0.8	i

Taken from the entries so far for reference:
SMILES	rRNA inh HTS	rRNA inh HTS OD600	rRNA inh HTS RFP	FGF22 binding
CCCNC(=O)N(C)C[C@@H]1Oc2cc(C#Cc3ccccn3)ccc2S(=O)(=O)N([C@@H](C)CO)C[C@@H]1C	-1	-7	1.1	i
C[C@@H]1CN([C@H](C)CO)C(=O)c2cc(NC(=O)CCC(F)(F)F)ccc2O[C@@H](C)CCCCO[C@@H]1CN(C)C(=O)NC1CCCCC1	-3	-8	-1.7	i

The main list resumes; the 5 compounds before the break are reprinted first.
SMILES	rRNA inh HTS	rRNA inh HTS OD600	rRNA inh HTS RFP	FGF22 binding
O=C(O)C[C@H]1C[C@@H]2c3cc(NC(=O)Cc4ccncc4)ccc3O[C@@H]2[C@@H](CO)O1	6	12	0.8	i
C[C@H](CO)N1C[C@H](C)[C@H](CN(C)C(=O)NC2CCCCC2)OCCCC[C@H](C)Oc2ccc(NS(=O)(=O)c3cccs3)cc2C1=O	-2	-14	-0.9	i
COc1ccc(-c2ncn(CCc3ccccc3OC)c2C(C)C)cc1	-52	-79	-16	i
C[C@@H]1CN([C@@H](C)CO)C(=O)c2cc(NC(=O)Cc3ccccc3)ccc2O[C@@H]1CN(C)C(=O)Nc1ccc(F)cc1	4	-3	1.1	i
CO[C@@H]1CN(C)C(=O)c2cc(NC(=O)C3CCCCC3)ccc2OC[C@@H](C)N(C)C[C@H]1C	0	1	-0.8	i
COc1cccc(C(=O)Nc2ccc3c(c2)OC[C@H](C)N(C(C)=O)C[C@H](C)[C@@H](OC)CN(C)C3=O)c1	-6	-4	0.0	i
CO[C@H]1CN(C)C(=O)c2ccc(NC(C)=O)cc2OC[C@H](C)NC[C@H]1C	-1	2	1.7	i
CC(C)NC(=O)N[C@H]1CC[C@H](CCNS(=O)(=O)c2ccc(F)cc2)O[C@@H]1CO	3	-3	-5.9	i
COc1cccc(S(=O)(=O)N2CCC3(CC2)CN(C(=O)Nc2ccc(F)cc2)[C@H](CO)c2[nH]c4cc(OC)ccc4c23)c1	1	4	3.8	i
Cc1ccc(S(=O)(=O)Nc2ccc3c(c2)C(=O)N([C@H](C)CO)C[C@H](C)[C@@H](CN(C)S(=O)(=O)c2ccc(C)cc2)O3)cc1	-3	-10	1.9	i
C[C@H](CO)N1C[C@H](C)[C@@H](CN(C)Cc2ccc(C(=O)Nc3ccccc3N)cc2)Oc2ccc(NC(=O)NC3CCCCC3)cc2CC1=O	2	-6	0.7	i
C[C@H]1CN([C@@H](C)CO)C(=O)CCCn2nncc2CO[C@H]1CN(C)Cc1ccc2c(c1)OCCO2	1	5	-2.7	i
C[C@@H]1CN([C@H](C)CO)C(=O)c2cc(NC(=O)Nc3cccc4ccccc34)ccc2O[C@@H]1CN(C)C(=O)Nc1ccc(C(F)(F)F)cc1	-2	6	-1.6	i
Cc1ccc(S(=O)(=O)Nc2ccc3c(c2)C(=O)N([C@H](C)CO)C[C@H](C)[C@@H](CN(C)C(=O)Nc2ccc(F)cc2)OCCCC[C@H](C)O3)cc1	0	2	0.0	i
O=C(CN1CCOCC1)NCC[C@H]1CC[C@H](NC(=O)Nc2ccc(Cl)cc2)[C@H](CO)O1	0	0	0.9	i
N#C[C@@H]1[C@@H](c2ccccc2)[C@@H](CO)N1C(=O)c1cccnc1	6	6	-1.5	i
O=C(C[C@@H]1C=C[C@@H](NS(=O)(=O)c2ccc(F)cc2)[C@H](CO)O1)NC1CCCCC1	-1	-1	1.2	i
CNC[C@H]1OCCCC[C@H](C)Oc2ccc(N)cc2C(=O)N([C@@H](C)CO)C[C@@H]1C	7	20	2.7	i
COCC(=O)Nc1ccc2c(c1)C(=O)N(C)[C@@H]1CC[C@H](CC(=O)NCCc3ccccc3)O[C@@H]1CO2	0	-1	-3.2	i
C[C@@H]1CN([C@H](C)CO)C(=O)c2ccccc2-c2ccccc2CO[C@@H]1CN(C)S(=O)(=O)c1cccc(C#N)c1	0	3	-0.1	i
CCN(C[C@H]1N[C@H](CO)[C@H]1c1ccc(-c2ccccc2)cc1)C(=O)COC	3	-1	1.2	i
C[C@@H](NC(=O)C[C@H]1CC[C@H](NC(=O)C2CC2)[C@@H](CO)O1)c1ccccc1	0	0	-1.5	i
O=C(Nc1ccc2c(c1)[C@H]1C[C@@H](CC(=O)N3CCOCC3)O[C@H](CO)[C@H]1O2)Nc1ccccc1F	-1	1	0.7	i
C[C@H]1CN([C@@H](C)CO)C(=O)Cc2cc(NC(=O)Nc3ccc(C(F)(F)F)cc3)ccc2O[C@H]1CN(C)S(C)(=O)=O	3	-6	-0.5	i
COc1cccc(-c2ccc3n(c2=O)C[C@@H]2[C@@H](CO)[C@H](C(=O)NCC4CC4)N(C)[C@H]32)c1	0	2	-0.6	i
O=C(CN1CCOCC1)N1CCCCN2[C@@H](CO)[C@@H](c3ccc(-c4ccccc4)cc3)[C@@H]2C1	8	13	2.5	i
CC(C)NC(=O)N(C)C[C@@H]1Oc2c(NS(=O)(=O)c3ccccc3)cccc2C(=O)N([C@H](C)CO)C[C@@H]1C	2	10	-0.9	i
CN1c2ccc(Br)cc2[C@H]2[C@H](CCN2C(=O)Cc2cccnc2)[C@H]1CO	1	8	-2.4	i
C[C@@H]1CN([C@H](C)CO)C(=O)Cc2cc(NC(=O)Cc3cn(C)c4ccccc34)ccc2O[C@@H]1CN(C)Cc1ccc2c(c1)OCO2	-2	-8	3.3	i
Fc1ccc(-c2nc3c4ccccc4ccn3c2Cc2cccc(F)c2)cc1	2	1	11	i
C[C@@H]1CN([C@@H](C)CO)C(=O)Cc2cc(NS(=O)(=O)c3ccc(F)cc3)ccc2O[C@H]1CN(C)C(=O)Nc1ccc(F)cc1	2	1	0.5	i
COCC#Cc1cnc2c(c1)C(=O)N([C@H](C)CO)C[C@@H](C)[C@H](CN(C)C(=O)C1CC1)O2	4	-1	0.1	i
CO[C@H]1CN(C)C(=O)c2ccc(NS(=O)(=O)CC(F)(F)F)cc2OC[C@H](C)N(CCC(F)(F)F)C[C@@H]1C	-1	2	-2.1	i
C[C@@H]1CN([C@H](C)CO)C(=O)c2cccc(NS(=O)(=O)c3ccc(F)cc3)c2O[C@H]1CN(C)Cc1ccc(C(=O)O)cc1	1	0	-1.0	i
CCNC(=O)C[C@@H]1CC[C@@H](NC(=O)C2CCOCC2)[C@H](CO)O1	4	10	-2.5	i
C[C@@H]1CN([C@@H](C)CO)C(=O)c2cc(C#Cc3cccc(F)c3)cnc2O[C@@H]1CN(C)Cc1ccccn1	6	4	-0.2	i
CN1C(=O)c2cc(NC(=O)C3CCOCC3)ccc2OC[C@H]2O[C@@H](CC(=O)NCC3CCCCC3)CC[C@H]21	3	8	1.2	i
C[C@@H]1CCCCO[C@H](CN(C)Cc2ccc3c(c2)OCO3)[C@@H](C)CN([C@H](C)CO)C(=O)c2cc(NS(=O)(=O)c3cccs3)ccc2O1	1	1	1.7	i
CC(=O)Nc1ccc2c(c1)C(=O)N(C)[C@H]1CC[C@H](CC(=O)N3CCc4ccccc4C3)O[C@@H]1CO2	1	-1	-1.2	i
COc1ccc(S(=O)(=O)Nc2ccc3c(c2)[C@@H]2C[C@@H](CC(=O)NCC4CC4)O[C@H](CO)[C@@H]2O3)cc1	4	3	1.5	i
CO[C@@H]1CN(C)C(=O)c2ccc(NC(=O)C3CCCC3)cc2OC[C@@H](C)NC[C@H]1C	5	1	-3.3	i
CCS(=O)(=O)Nc1ccc2c(c1)C(=O)N(C)[C@H]1CC[C@H](CC(=O)N[C@@H]3CCN(Cc4ccccc4)C3)O[C@H]1CO2	1	2	-1.8	i
CCCN(C)C[C@H]1OCCCC[C@H](C)Oc2ccc(N(C)C)cc2C(=O)N([C@H](C)CO)C[C@H]1C	-1	-3	-0.9	i
C[C@@H]1CN([C@H](C)CO)C(=O)Cc2cc(NC(=O)c3ccncc3)ccc2O[C@@H]1CN(C)S(=O)(=O)c1ccc(Cl)cc1	1	-1	-0.4	i
C[C@@H]1CN([C@H](C)CO)S(=O)(=O)c2ccc(-c3ccccc3)cc2O[C@@H]1CN(C)CC1CC1	1	0	5.0	i
COc1ccc(-c2ccc([C@H]3[C@@H](C#N)N(C(=O)c4cccc(F)c4)[C@H]3CO)cc2)cc1	-2	0	-3.1	i
CC(C)NC(=O)Nc1ccc2c(c1)C(=O)N([C@H](C)CO)C[C@@H](C)[C@H](CN(C)S(=O)(=O)c1ccc(F)cc1)OCCCC[C@@H](C)O2	-1	-3	6.7	i
C[C@H]1CN([C@@H](C)CO)S(=O)(=O)c2ccc(-c3cccc(F)c3)cc2O[C@@H]1CN(C)S(C)(=O)=O	-13	-18	2.8	i
C[C@@H]1CN([C@@H](C)CO)S(=O)(=O)c2ccc(-c3ccccc3)cc2O[C@H]1CN(C)Cc1cccc(F)c1	6	11	-2.5	i
CC(=O)N(C)C[C@H]1Oc2ncc(C3=CCCC3)cc2C(=O)N([C@@H](C)CO)C[C@H]1C	6	8	-2.6	i
Cc1ccc(C(=O)N2O[C@]34C=C[C@]25C[C@@H](O)CC[C@]5(C)C3CC[C@]2(C)[C@@H]([C@H](C)/C=C/[C@H](C)C(C)C)CC[C@H]24)cc1 (stereo partly drawn)	4	15	1.2	i
O=C(C[C@H]1CC[C@@H]2[C@H](COC[C@H](O)CN2C(=O)c2ccc3c(c2)OCO3)O1)NC1CCCC1	7	7	0.2	i
N#C[C@H]1[C@H](c2ccc(C#CC3CCCC3)cc2)[C@H](CO)N1S(=O)(=O)c1ccccc1	-9	-45	22	i
CO[C@@H]1CC[C@H]2CCOc3c(C#N)cccc3C(=O)N(C)[C@@H](C)C(=O)N(C)C[C@H]1O2	4	12	-1.1	i
C[C@H](CO)N1C[C@H](C)[C@@H](CN(C)S(=O)(=O)c2cn(C)cn2)Oc2ncc(C3=CCCCC3)cc2C1=O	-1	4	-0.4	i
C[C@H](O)C#Cc1cnc2c(c1)C(=O)N([C@H](C)CO)C[C@H](C)[C@H](CN(C)C(=O)Cc1ccncc1)O2	-3	5	-1.4	i
C[C@@H]1CN([C@H](C)CO)C(=O)Cc2cc(NC(=O)C3CCCCC3)ccc2O[C@H]1CN(C)Cc1ccc2c(c1)OCO2	-6	-1	-1.5	i
O=C(C[C@H]1C[C@H]2c3cc(NC(=O)NC4CCCCC4)ccc3O[C@H]2[C@@H](CO)O1)NCc1ccccn1	2	-6	0.8	i
C[C@H](CO)N1C[C@H](C)[C@@H](CN(C)C(=O)NC2CCCCC2)Oc2ccc(NC(=O)Nc3cccc4ccccc34)cc2C1=O	-3	-4	-2.3	i
CO[C@@H]1CN(C)C(=O)c2cc(NC(=O)C3CC3)ccc2OC[C@H](C)N(Cc2cc(F)ccc2F)C[C@H]1C	-3	3	0.1	i
Cc1cc(C(=O)Nc2cccc3c2O[C@@H](CN(C)S(=O)(=O)c2ccc(F)cc2)[C@H](C)CN([C@H](C)CO)C3=O)n(C)n1	-4	-1	-0.7	i
C[C@@H]1CN([C@@H](C)CO)C(=O)c2cccc(NS(C)(=O)=O)c2O[C@H]1CN(C)Cc1ccc(-c2ccccc2)cc1	-4	-12	0.2	i
C[C@H](CO)N1C[C@H](C)[C@H](CN(C)S(=O)(=O)c2cn(C)cn2)Oc2ncc(C#Cc3cccc(F)c3)cc2C1=O	3	7	-2.4	i
